# gsp agonist: agonists of gsp mutant (McCune-Albright syndrome). AID 624287. 340,000 tested, 0.13% active. gsp mutant cells, cAMP HTRF, 30 min; control for the full effect not named in the record. Potency, µM (titrated, usually from 76.9 µM), for the others: top-dose activation (cAMP increase), hits mostly activators; active = well fitted activation curve with a large enough effect; inconclusive = small, poorly fitted or top-dose-only effect, or another doubt; inactive = no such curve, though single readings can be large or run the other way; cell line not stated here;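 note: phosphodiesterase inhibitor Ro 20-1724 added with compounds to block cAMP breakdown; potency is the fitted concentration of half-maximal effect; nearly all actives have a fitted effect of over 60% in size; about a fifth of the inactives were tested at one dose only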
#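 Cells in DMEM/10% FBS with G418 were pretreated with compounds in DMSO plus […] (300 uM stock) for 30 min at 37C. cAMP was measured by HTRF (cAMP-d2 plus anti-cAMP antibody-K) after 30 min at room temperature.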
# CtBP-E1A inh: blocks the CtBP interaction with E1A | AlphaScreen GST-E1A/His-CtBP binding, 1536-well; stronger effect = lower value; control for the full effect not named in the record | activity change, % (no concentration beside the values) | 340,000 tested, 0.49% active; in the data active means activity change below about -65%; inconclusive means about -30% to -65%; inactive means above about -30%; note: % is set by controls: 0 for no effect and ±100 for the full control effect; compound concentration not given in the record
#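 In 5 uL wells, 23 nL compound meets equimolar GST-E1A and His-CtBP (5X stock 125 nM each) for 2 h, 37 °C. Beads (5X, 50 ug/mL) then 1 h, 37 °C, dark.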
# ClpP mod: qHTS Assay for Activators of ClpP. AID 651965, 2013. 340,000 tested, 1.9% active. purified B. subtilis ClpP, FRET peptide cleavage, 20 min. Potency, µM (highest dose often 57.5 µM), without a hit: at the highest dose activity change, negative = active; active = well fitted falling curve with a large enough effect; inconclusive = small, poorly fitted or top-dose-only effect; inactive = no such curve, though single readings can be large or run the other way; note: potency is the fitted concentration of half-maximal effect; the source files actives as falling curves though it sought activators and does not explain the sign; nearly all actives have a fitted effect of over 65% in size; many hits overshoot -100%
# Target sequence (P80244 whole entry, looked up): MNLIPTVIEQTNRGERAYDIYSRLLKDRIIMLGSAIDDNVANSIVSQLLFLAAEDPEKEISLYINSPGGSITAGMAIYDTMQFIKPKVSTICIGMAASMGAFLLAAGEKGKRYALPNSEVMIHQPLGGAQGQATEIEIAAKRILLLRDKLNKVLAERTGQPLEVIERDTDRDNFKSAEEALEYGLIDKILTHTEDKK
#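 ClpP 10 microg/mL final, pH 8 Tris/KCl buffer with BSA, glycerol, Tween-20; compound pinned in; FRET-FV substrate; RT 20 min; Ex320/Em430; ΔFRET vs ADEP 5.8 microM, DMSO, no enzyme.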
# Menin-MLL FL inh: inhibitors of human menin-MLL interaction, wild-type MLL peptide; Fluorescence polarization, fluorescein-MLL peptide displacement from menin; FP activity change, % at 61.4 µM; 290,000 tested, under 10 active; inconclusive = falling polarisation curve, or a change in total fluorescence; inactive = total fluorescence flat and polarisation flat or rising; no compound was filed as active; the % refers to the polarisation; negative = inhibition;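 note: % of control where 0% means no effect; inhibitors lower the polarisation; unlabelled MLL peptide was the positive control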
# gsp antagonist: antagonizes gsp, the McCune-Albright syndrome mutation; gsp-mutant cells, cAMP HTRF, 30 min; control for the full effect not named in the record; Potency, µM (series often up to 76.9 µM), inactives show at the top dose activity change, negative = inhibition, most hits filed as inhibitors; 340,000 tested, 0.4% active; active = falling curve of any shape with a large fitted effect; inconclusive = falling curve, mostly with a smaller effect; inactive = flat or rising curve; cell line not stated here;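 note: intracellular cAMP measured with PDE inhibitor Ro 20-1724 present during compound exposure; potency is the fitted concentration of half-maximal effect; % is set by controls: 0 for no effect and ±100 for the full control effect; nearly all actives have a fitted effect of over 65% in size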
#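 Measurement of cellular cAMP by homogeneous time-resolved fluorescence following a 30 min compound exposure at 37C. The PDE inhibitor […] was present throughout; the assay buffer was DPBS with 0.05% BSA and 0.005% Tween 20.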
# TRPV1 potentiator: human TRPV1 potentiation | Q8NER1 | TRPV1-expressing cells, Fluo-8 calcium influx, capsaicin EC20 potentiation; host cell line not named in the record; control for the full effect not named in the record | potentiation, % at 8.33 µM | 320,000 tested, 0.02% active | AID 540277; active means potentiation above 80%; inconclusive means 30% to 80%; inactive means below 30%; note: 0% is about no effect
# Target sequence (Q8NER1 whole entry, looked up): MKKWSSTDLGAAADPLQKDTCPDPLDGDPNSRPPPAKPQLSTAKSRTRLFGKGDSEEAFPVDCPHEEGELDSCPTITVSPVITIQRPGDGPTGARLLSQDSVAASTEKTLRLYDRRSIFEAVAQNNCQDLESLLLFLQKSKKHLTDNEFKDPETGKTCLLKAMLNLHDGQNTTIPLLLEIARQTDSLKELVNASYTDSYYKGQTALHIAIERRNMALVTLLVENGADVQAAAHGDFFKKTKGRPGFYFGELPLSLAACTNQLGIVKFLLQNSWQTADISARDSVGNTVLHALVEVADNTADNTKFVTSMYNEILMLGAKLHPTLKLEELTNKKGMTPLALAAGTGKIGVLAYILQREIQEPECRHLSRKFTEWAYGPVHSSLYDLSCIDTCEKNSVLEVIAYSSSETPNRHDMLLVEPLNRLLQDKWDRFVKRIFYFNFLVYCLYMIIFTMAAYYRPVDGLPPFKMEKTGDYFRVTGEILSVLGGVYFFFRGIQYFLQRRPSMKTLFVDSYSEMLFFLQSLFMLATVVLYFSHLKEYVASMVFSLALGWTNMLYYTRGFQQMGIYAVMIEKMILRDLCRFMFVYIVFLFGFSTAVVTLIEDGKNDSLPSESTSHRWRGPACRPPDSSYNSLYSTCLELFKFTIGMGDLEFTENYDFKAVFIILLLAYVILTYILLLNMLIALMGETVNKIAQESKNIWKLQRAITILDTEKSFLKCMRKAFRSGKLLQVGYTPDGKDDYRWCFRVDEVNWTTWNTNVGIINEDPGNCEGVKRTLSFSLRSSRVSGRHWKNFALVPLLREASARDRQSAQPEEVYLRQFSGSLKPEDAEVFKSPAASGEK
#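 TRPV1-expressing cells were cultured overnight at 35.5C and loaded with Fluo-8 calcium dye for 40 to 90 min at room temperature. After a 10 s baseline, compound was added and calcium influx was read kinetically for 3 min (ex 480/em 520 nm).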
# Sfp PPTase inh: inhibitors of Bacillus subtilis Sfp phosphopantetheinyl transferase | Q9F4F7 | 310,000 tested, 3.5% active | Biochemical Sfp PPTase activity, qHTS | Potency, µM, for the others: max response, negative = inhibition, hits mostly inhibitors | AID 1490; active = well fitted inhibition curve with a large enough effect; inconclusive = small, poorly fitted or top-dose-only effect, or another doubt; inactive = no such curve, though single readings can be large or run the other way;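 note: the enzyme is Sfp with the accession as filed and its product quenches rhodamine fluorescence; potency is the fitted concentration of half-maximal effect; 0% = enzyme reaction without inhibitor and -100% = no enzyme wells; top concentration of the series not given in the record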
#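 Reaction rates are the 30-min fluorescence difference (ex 525, em 598 nm) in wells containing 15 nM Sfp, 5 uM rhodamine-CoA and 12.5 uM BHQ-2-YbbR at pH 7.6 with 10 mM MgCl2.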
# * marks the source's active call; other numbers are inactive results; u = inconclusive; x = no result given; & = joins results of further samples; [ ] = dose if it differs, or a comment.
SMILES,gsp agonist,CtBP-E1A inh,ClpP mod,Menin-MLL FL inh,gsp antagonist,TRPV1 potentiator,Sfp PPTase inh
O=C(c1ccccc1)c1ccc(OCCn2cnc3ccccc3c2=O)cc1,u,-1,-1.1%,2.6,-11%,u,4%
Cn1c(SCC(=O)NCCc2ccccc2)nnc1-c1ccncc1,-1%,7,-0.2%,-0.1,-9%,-4,-2%
CCn1c(N2CCN(C(=S)NCCc3ccccc3)CC2)nc2ccccc21,-10%,-9,-2.3%,-0.1,-26%,8,6%
O=C(/C=C/c1ccccc1)Nn1c(-c2cccs2)nc2ccccc2c1=O,27%,u,-1.4%,3.9,-6%,-14,-3%
CC(=O)N1CCN(CC(=O)O)CC1,x,x,x,-0.2,x,-19,u
CCOC(=O)C1(CCCc2ccccc2)CCN(Cc2cn(CC)nc2C)CC1,-16%,-1,x,-0.9,6%,-14,-6%
COC(=O)c1cc(NC(=O)c2c(C)noc2C)ccc1N1CCOCC1,-9%,4,-0.3%,x,16%,9,7%
COc1cc(OC)c(OC)cc1CNCc1ccc2c(c1)OCO2,-37%[inhibitor],x,0.1%,-1.5,-4%,-11,0%
Cc1cc(NC(=O)CSc2nnc(Cc3cccn3C)n2CCc2ccccc2)no1,u,-5,1.5%,2.4,-5%,-15,-11%
Cc1cccc(NC(=S)N/N=C/c2ccc3c(c2)OCO3)c1,-17%,-23,-2.6%,1.3,-10%,-2,u
CCCCNC(=O)Oc1ccc(C(=O)N2c3ccccc3NC(=O)C2C)cc1 (configuration not stated),-6%,x,-3.8%,3.1,6%,-9,13%
O=C1N/C(=N/N=C/c2ccco2)SC1Cc1ccccc1 (configuration not stated),-10%,x,2.0%,2.0,-3%,-3,-15%
CCc1[nH]nc2c1C(c1ccncc1)C(C#N)=C(N)O2 (configuration not stated),-39%,44,-0.4%,2.1,4%,6,19%
Cc1ccc(CNC(=O)CCS(=O)(=O)c2ccc3nc(C)sc3c2)cc1,u,-2,3.4%,0.1,0%,-17,17%
C[C@H](CO)N1C[C@H](C)[C@@H](CN(C)C(=O)Nc2ccc(F)cc2)Oc2cc(Br)ccc2S1(=O)=O,-49%,-5,-3.3%,x,x,x,x
CCN(CC)C(=O)Cn1c(=O)n(Cc2ccc(F)cc2)c(=O)c2sccc21,u,-20,x,-1.2,-1%,-2,13%
O=S(=O)(Nc1cc(Cl)ccc1-n1cncn1)c1ccccc1Cl,-1%,-3,-3.3%,x,7%,29,x
CN(C)S(=O)(=O)c1cccc(NC(=O)c2ccc3c(c2)OCCO3)c1,-2%,-4,-3.4%,x,-10%,14,x
COc1ccc(/C=N/NC(=O)C(=O)N2CCCC2)cc1,13%[15.4 µM],2,x,0.3,-11%,-14,18%
Cc1cccc2c1NC1(CCCC1)CC2C (configuration not stated),20%,x,-9.7%,2.5,-2%,5,-6%
CCOC(=O)C1CCCN(c2nc3ccccc3nc2C(C#N)C(=O)OCCOC)C1 (configuration not stated),-5%,-1,-1.1%,u,-18%,14,-25%
Cc1cc2ncn(S(=O)(=O)c3ccc(S(N)(=O)=O)cc3)c2cc1C,-3%,x,0.2%,x,9%,x,x
N=c1c(C(=O)NC2CCCC2)cc2c(=O)n3ccccc3nc2n1CC1CCCO1 (configuration not stated),u,2,x,1.2,2%,-4,17%
COC(=O)[C@H]1[C@H](CCc2ccccc2)NC(=O)N(Cc2ccccc2)[C@@H]1C,x,-9,-3.0%,1.7[11.7 µM],-10%,x,8%
COCc1nnc(NC(=O)c2ccc(NC(C)=O)cc2)s1,-57%[inhibitor],11,-0.4%,2.0,-10%,3,4%
COc1cccc(NC(=O)C(Sc2nnc3ccccn23)c2ccccc2)c1 (configuration not stated),-5%[15.4 µM],16,-7.6%,2.4,6%,-8,7%
Cc1sc(NC(=O)c2ccco2)c(C(c2ccc(F)cc2)N2CCN(C)CC2)c1C (configuration not stated),-37%,-6,-3.7%,-2.0,-3%,-15,-14%
O=C(Nc1ccc(N2CCOCC2)c(Cl)c1)c1ccccc1F,10%,0,-0.7%,3.3,-5%,-17,17%
CCOC(=O)C(C(C)C)C(N)Cc1ccc(F)cc1 (configuration not stated),u,8,x,-4.8,8%,-6,6%
COc1ccc(-c2cn3nc(C)c(C)nc3n2)cc1OC,-2%,-4,-0.3%,x,-12%,-6,x
O=C(COC(=O)c1ncc(Cl)c(Cl)c1Cl)NCc1ccccc1,-1%,2,-0.2%,x,-10%,-12,x
CC(=O)N1CCc2cc(S(=O)(=O)NCC(=O)NCc3ccc(F)cc3)ccc21,20%,-3,x,x,6%,5,4%
COC(=O)[C@@]1(Cc2ccc(F)cc2)[C@H]2c3cc(C(=O)N(C)C)n(Cc4ccc(Cl)c(C(F)(F)F)c4)c3C[C@H]2CN1C(=O)c1ccccc1,x,1,0.5%,5.4,x,x,15%
COC(C(=O)Nc1ccc(S(=O)(=O)Nc2cccc3ccccc23)cc1)c1ccccc1 (configuration not stated),0%,-1,-3.6%,17,2%,8,32%[activator]
O=C(/C=C/c1ccc(O)c([N+](=O)[O-])c1)c1ccc2ccccc2c1,30%,-1,x,0.9,u,6,-7%
Cc1ccccc1N(C(=O)CCCC(=O)Nc1ccccn1)C(C(=O)NC1CCCC1)c1ccc(O)cc1 (configuration not stated),5%[15.4 µM],0,x,3.8,-1%,4,14%
CC1(C)C(=O)Nc2ccccc2N1C(=O)COc1ncnc2ccccc12,5%,3,0.3%,-2.2,8%,3,-2%
CC(=O)c1cccc(S(=O)(=O)Nc2ccc3nc(C)sc3c2)c1,-1%[15.4 µM],-1,-5.3%,-3.4,-13%,-6,11%
O=C(Cn1ncn2c(cc3ccccc32)c1=O)NCCC1=CCCCC1,-4%,-9,22µM*,-1.5,8%,-17,7%
COC(=O)C1=C(C)NC(C)=C(C(=O)OC(C)C)C1c1cccc2nonc12 (configuration not stated),x,-2,1.0%,u,-14%,-1,15%&11%
O=C(c1ccc2nc[nH]c2c1)N1CCN(c2cccc(Cl)c2)CC1,23%,5,-1.2%,x,1%,-1,-21%
O=C(/C(=C/c1ccncc1)n1ccnc1)c1ccc(Cl)cc1Cl,1%,x,-0.3%,7.8,-14%,14,1%
CC(=O)Nc1ccc(Br)c(Cl)c1,-17%,11,x,4.4,6%,x,12%
CNC(=S)N/N=C/c1cn(CCOc2ccccc2OC)c2ccccc12,-30%[inhibitor],-25,-11%,5.4,-2%,4,u
O=S1(=O)CCN=C2SC3=C(CCCC3)N21,-4%,2,-0.6%,0.3,6%,3,21%
COc1ccc(C(=O)N2CCn3c(C)ccc3C2C)cc1 (configuration not stated),13%,x,-11%,u,5%,-10,-2%
CC[C@]12c3[nH]c4ccc(OC)cc4c3CCN1C(=O)C(CC(=O)NCC13CC4CC(CC(C4)C1)C3)C[C@@H]2C(=O)N1CCN(C(=O)c2ccco2)CC1 (some centres not stated),x,-11,-2.4%,x,-17%,x,x
COc1ccc(CNC(=O)c2ccc(Cn3nc(C)cc3C)o2)cc1,19%,4,-0.8%,-0.7,2%,24,6%
Cc1c(Cc2ccccc2)c(=O)oc2cc(OC(=O)c3ccccc3)ccc12,-27%,1,-28%,-1.6,10%,9,14%
Cc1nc(SCC(=O)NC2CCCCC2C)c(C#N)c(C)c1C (configuration not stated),8%,-1,-2.8%,x,3%,-13,x
O=C(CSc1nnc(Cc2cccs2)n1-c1ccc(Cl)cc1)NCc1ccc2c(c1)OCO2,-11%,-2,0.4%,0.1,-13%,-4,5%
CCN(CC)C(=O)CSc1nnc([C@H](CCSC)NC(=O)OC(C)(C)C)o1,15%,2,-2.6%,1.8,2%,-6,9%
COc1ccc(C(=O)NC2(C(F)(F)F)NC(=O)N(CCCc3ccccc3)C2=O)cc1OC (configuration not stated),-11%[15.4 µM],1,5.2%,-1.7,8%,0,4%
COc1ccc(OC)c(C2=NS(=O)(=O)N(C)C(C(=O)Nc3ccc(F)cc3F)=C2)c1,31%,-12,1.0%&0.4%,2.3,u,5,6%
Cn1c(SCC(=O)C(C)(C)C)nnc1-c1ccc(F)cc1,18%,2,x,1.9,-1%,-8,13%
Cc1ccc(NC(=O)C2Cc3ccccc3CN2C(=O)c2ccco2)cc1S(=O)(=O)N(C)C (configuration not stated),-7%[15.4 µM],3,x,-2.5,-24%,7,-7%
O=P(/C(=N/O)Sc1ccccc1)(N1CCOCC1)N1CCOCC1,-8%,1,-1.3%,4.9,5%,-1,-20%

# 6 of the compounds above, with tabs:
SMILES	gsp agonist	CtBP-E1A inh	ClpP mod	Menin-MLL FL inh	gsp antagonist	TRPV1 potentiator	Sfp PPTase inh
CCN(CC)C(=O)CSc1nnc([C@H](CCSC)NC(=O)OC(C)(C)C)o1	15%	2	-2.6%	1.8	2%	-6	9%
COc1ccc(C(=O)NC2(C(F)(F)F)NC(=O)N(CCCc3ccccc3)C2=O)cc1OC (configuration not stated)	-11%[15.4 µM]	1	5.2%	-1.7	8%	0	4%
COc1ccc(OC)c(C2=NS(=O)(=O)N(C)C(C(=O)Nc3ccc(F)cc3F)=C2)c1	31%	-12	1.0%&0.4%	2.3	u	5	6%
Cn1c(SCC(=O)C(C)(C)C)nnc1-c1ccc(F)cc1	18%	2	x	1.9	-1%	-8	13%
Cc1ccc(NC(=O)C2Cc3ccccc3CN2C(=O)c2ccco2)cc1S(=O)(=O)N(C)C (configuration not stated)	-7%[15.4 µM]	3	x	-2.5	-24%	7	-7%
O=P(/C(=N/O)Sc1ccccc1)(N1CCOCC1)N1CCOCC1	-8%	1	-1.3%	4.9	5%	-1	-20%

# Screening results (PubChem BioAssay)

# Random draw from the library, and some 5.3% of all compounds hit somewhere here.
